Screening data: PubChem, The Scripps Research Institute Molecular Screening Center
SIAE inh: human SIAE inhibition, primary screen | hit rate 0.69% among 370,000 | inhibition, % at 9.66 µM | SIAE FP-Rh probe binding, fluorescence polarization | AID 1053197 | Q9HAT2;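 active means inhibition above a cutoff: mean of compounds within the control limits plus 3 SD of those, cut at about 17% in these data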;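 further: 0% = plate median of compound wells and 100% = probe without SIAE protein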
PLC-beta3 inh: blocks human PLC-beta3 enzyme activity; Q01970; Purified PLC-beta3, fluorogenic substrate, fluorescence; inhibition, % at 12.2 µM; hit rate 0.18% among 370,000; AID 720704; in the data active means inhibition above about 11%;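 further: 0% = median of compound wells on plate and 100% = full blocker control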
ARFGAP1 inh: rat ARFGAP1 inhibition | Q62848 | Arfgap1-stimulated ARF1 GTP hydrolysis, GDP FP detection | inhibition, % at 16.5 µM | hit rate 0.26% among 360,000 | AID 651572;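 active means inhibition above a per-plate limit, mean inhibition of low control wells plus 3 SD, cut at about 25% in these data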;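 further: 0% = DMSO wells with enzyme and 100% = wells lacking Arfgap1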
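system = rat Arfgap1 catalytic domain, aa 1-136 | technique = FP, GDP Alexa 633 tracer displaced from anti-GDP antibody, 620/688 nm | compound = one concentration, 16.5 µM, DMSO 1.26% | medium = HEPES-based buffer, pH 7.5 | timing = compound-enzyme preincubation 20 min, reaction 120 min, detection 60 min, 25 °C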
ADAM17 inh: inhibits human ADAM17; hit rate 0.83% among 370,000; recombinant ADAM17, EDANS/DABCYL FRET peptide cleavage; inhibition, % at 6.95 µM; P78536;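 active means inhibition above the mean of compounds lying between control limits plus 3 SD, set per campaign, cut at about 8.5% in these data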;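 further: 0% = DMSO-only wells as the low control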
PLC-gamma1 inh: PLC-gamma1 (human) inhibition, primary screen | P19174 | purified PLC-gamma1, fluorogenic substrate, fluorescence | inhibition, % at 12.2 µM | hit rate 0.84% among 370,000 | AID 720700; in the data active means inhibition above about 9.5%
ADAM10 inh: inhibitors of human ADAM10. hit rate 0.62% among 370,000. O14672. recombinant ADAM10, EDANS/DABCYL FRET peptide cleavage, 3 h. AID 720582. inhibition, % at 7 µM;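 active means inhibition above a per-campaign cutoff equal to the mean of compounds falling between control-based bounds plus 3 SD, cut at about 20% in these data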;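 further: 0% = DMSO wells while the 100% control is not disclosed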
* marks the source's active call; other numbers are inactive results; i = inactive. Some of the compounds tested; rates above refer to the full screens.

canonical_smiles,ADAM10 inh,PLC-beta3 inh,SIAE inh,ARFGAP1 inh,ADAM17 inh,PLC-gamma1 inh
COC(=O)Nc1sc(C)nc1-c1ccccc1,-11,-5,8,-4,-6,-3
Oc1ccc(N=Cc2c(O)ccc3ccccc23)cc1,-8,-20,21*,13,-3,-10
CC(C(=O)O)c1cccc(C(=O)c2ccccc2)c1 (stereo not given),-5,3,6,-7,-1,-1
O=S(=O)(c1ccc2nc(SCc3cccc(Cl)c3)[nH]c2c1)N1CCOCC1,15,2,-9,5,6,1
COc1cccc2c1C(=O)c1c(O)c3c(c(O)c1C2=O)C[C@@](O)(C(C)=O)C[C@@H]3O[C@H]1C[C@H](N)[C@H](O)[C@H](C)O1,-1,-111,45*,-1,-2,-91
Cn1ncc(Br)c1C(=O)O,4,2,-5,18,1,2
O=C(O)C1=C[C@@H](O)[C@@H](O)[C@H](O)C1,-11,2,-7,36*,-4,-3
O=C(O)COCCN1CCN(C(c2ccccc2)c2ccc(Cl)cc2)CC1 (stereo not given),-6,1,-4,12,-7,3
CCCCOC(=O)C1=C(C)NC2(O)c3ccccc3C(=O)C12O (stereo not given),8,1,-1,16,-8,0
CCCCc1oc2ccccc2c1C(=O)c1cc(I)c(OCCN(CC)CC)c(I)c1,1,0,-3,-9,-5,4
CCNC(=O)C1CC(=O)N(CC)C(=Nc2cc(Cl)c(O)c(Cl)c2)S1 (stereo not given),9,2,2,6,2,5
O=C(O)/C=C/C(=O)Nc1ccc(O)cc1,-86,-78,7,14,-32,-51
CC1(C)[C@H](C(=O)O)N2C(=O)C[C@H]2S1(=O)=O,-17,4,0,7,-2,3
Cn1c2nc(=O)[nH]c(=O)c-2cc2ccccc21,i,i,-2,9,i,i

Exported with the structure last: 9 of the compounds above.
ADAM10 inh	PLC-beta3 inh	SIAE inh	ARFGAP1 inh	ADAM17 inh	PLC-gamma1 inh	Molecule
4	2	-5	18	1	2	Cn1ncc(Br)c1C(=O)O
-11	2	-7	36*	-4	-3	O=C(O)C1=C[C@@H](O)[C@@H](O)[C@H](O)C1
-6	1	-4	12	-7	3	O=C(O)COCCN1CCN(C(c2ccccc2)c2ccc(Cl)cc2)CC1 (stereo not given)
8	1	-1	16	-8	0	CCCCOC(=O)C1=C(C)NC2(O)c3ccccc3C(=O)C12O (stereo not given)
1	0	-3	-9	-5	4	CCCCc1oc2ccccc2c1C(=O)c1cc(I)c(OCCN(CC)CC)c(I)c1
9	2	2	6	2	5	CCNC(=O)C1CC(=O)N(CC)C(=Nc2cc(Cl)c(O)c(Cl)c2)S1 (stereo not given)
-86	-78	7	14	-32	-51	O=C(O)/C=C/C(=O)Nc1ccc(O)cc1
-17	4	0	7	-2	3	CC1(C)[C@H](C(=O)O)N2C(=O)C[C@H]2S1(=O)=O
i	i	-2	9	i	i	Cn1c2nc(=O)[nH]c(=O)c-2cc2ccccc21
